LANA-H2B inh = blocks KSHV LANA binding to histone H2A/H2B; Q9QR71; cell-free LANA-H2A/H2B peptide, fluorescence polarization; inhibition, % (no concentration beside the values); 320,000 tested, 0.6% active; AID 2629; in the data active = inhibition mostly above about 10%, no sharp cut-off; inactive = mostly below about 6.7%;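 note: stock transfer was 7.5 nL into about 10 µL; 0% = median of vehicle wells and 100% = median of positive control wells; one replicate is shown; the record names a cut of 25% in any replicate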
Target sequence (Q9QR71 whole entry, looked up): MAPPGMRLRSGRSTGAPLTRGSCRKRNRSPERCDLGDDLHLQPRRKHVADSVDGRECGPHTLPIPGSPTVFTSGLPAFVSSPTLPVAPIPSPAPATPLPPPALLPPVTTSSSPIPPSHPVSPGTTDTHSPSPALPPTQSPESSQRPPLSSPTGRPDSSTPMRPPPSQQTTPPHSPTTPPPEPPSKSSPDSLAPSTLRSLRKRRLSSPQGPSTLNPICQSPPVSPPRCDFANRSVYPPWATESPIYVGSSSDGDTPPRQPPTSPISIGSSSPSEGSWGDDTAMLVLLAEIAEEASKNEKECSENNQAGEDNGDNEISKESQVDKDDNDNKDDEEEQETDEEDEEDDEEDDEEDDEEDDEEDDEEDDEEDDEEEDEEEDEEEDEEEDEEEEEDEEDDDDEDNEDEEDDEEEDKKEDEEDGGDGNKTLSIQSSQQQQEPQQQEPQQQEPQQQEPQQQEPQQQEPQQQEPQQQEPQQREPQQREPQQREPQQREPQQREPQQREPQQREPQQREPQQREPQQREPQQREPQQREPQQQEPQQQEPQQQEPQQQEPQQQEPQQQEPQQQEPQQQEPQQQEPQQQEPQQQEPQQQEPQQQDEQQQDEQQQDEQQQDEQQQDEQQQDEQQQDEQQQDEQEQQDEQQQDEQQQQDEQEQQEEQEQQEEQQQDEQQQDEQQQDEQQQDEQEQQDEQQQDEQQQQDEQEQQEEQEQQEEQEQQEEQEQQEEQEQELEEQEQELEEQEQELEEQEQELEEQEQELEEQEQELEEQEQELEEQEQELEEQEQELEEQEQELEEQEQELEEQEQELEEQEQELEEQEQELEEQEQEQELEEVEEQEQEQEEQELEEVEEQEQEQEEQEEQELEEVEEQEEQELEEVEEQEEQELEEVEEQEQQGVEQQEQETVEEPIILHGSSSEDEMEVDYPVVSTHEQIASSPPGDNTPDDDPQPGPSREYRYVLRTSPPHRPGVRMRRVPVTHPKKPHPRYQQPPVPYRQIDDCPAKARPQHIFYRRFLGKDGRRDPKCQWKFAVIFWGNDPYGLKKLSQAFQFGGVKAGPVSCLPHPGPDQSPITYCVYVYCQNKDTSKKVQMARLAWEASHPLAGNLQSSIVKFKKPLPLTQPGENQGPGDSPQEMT
MLL AF4-AF9 inh = inhibitors of human MLL-AF4/AF9 interaction; AlphaScreen, biotin-AF4 peptide binding to FLAG-AF9; AID 651704; P42568; 350,000 tested, 0.47% active; inhibition, % at 10 µM;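 active = every replicate reaching a set inhibition limit, whatever the replicate mean, cut at about 25% in these data; inconclusive = mean inhibition reaches that limit but some replicates miss it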;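 note: 0% = plate neutral control median and 100% = total signal loss; the record names both 10 and 1 µM as test concentration; the first replicate is given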
Bfl-1 A1 inh = inhibitors of the anti-apoptotic protein A1, read as caspase activation. MEF A1-2A-BIM cells, Caspase-Glo 3/7 luminescence, 3 h; percent of clofoctol response, vehicle zero. caspase activation, % (no concentration beside the values). 330,000 tested, 0.066% active;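 active = over half of replicate activation scores above 10%, or exactly half above 10 with the replicate mean above 10; inconclusive = replicate mean below 10 yet half the replicates above 10; inactive = over half of replicates below 10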;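 note: wells of about 30 µL received 50 nL stock; many hits fall short of the cut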
Vif TR-FRET = HIV-1 Vif–A3G interaction blockers – biochemical, TR-FRET, GST-Vif 1-94, biotin-A3G peptide, dose response retest, primary screen (AID 1117319); one-dose inhibition, %; IC50 in µM for titrated hits; 260,000 tested, 0.57% active; TR-FRET GST-Vif / biotin-A3G peptide binding; higher % means a stronger effect; test concentration not given here; strong numbers were not always called active;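 active = above the screen mean plus three standard deviations and confirmed in dose response; inconclusive = results disagree or hit not tested in dose response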;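 note: Vif residues 1-94 fused to GST binding biotinylated APOBEC3G peptide 110-148; 0% = full assay without inhibitor and 100% = GST in place of GST-Vif; retest series ran down from 100 µM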
T cruzi inh = blocks replication of Trypanosoma cruzi; T. cruzi beta-gal in NIH3T3, luminescence, 90 h; inhibition, % (test concentration not listed); 300,000 tested, 1.4% active;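 active = mean inhibition across valid replicates above about 55%, limit read from the data; inconclusive = mean below that limit but half or more replicates reach it; inactive = mean below it, under half of replicates reach it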;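 note: signal also drops with host cell toxicity which is not excluded here; 0% = plate median of DMSO wells and 100% = zero luminescence signal; higher percent means less beta-gal luminescence so fewer parasites; stock transfer was 50 nL into about 50 µL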
Beta apoptosis = blocks beta cell apoptosis. INS-1E cytokine-induced death, ATP luminescence, 48 h; percent of positive-control rescue, neutral wells zero. 300,000 tested, 0.8% active. protection from apoptosis, % (test concentration not listed);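 active = all replicates at 75% or more, or half of them and the mean; inconclusive = half reach 75% but not the mean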;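 note: 0% = cytokine-treated negative control wells and 100% = positive control rescue; higher means more ATP so stronger rescue from cytokine killing; wells of about 40 µL received 100 nL stock; the first replicate is given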
RanGTP-Imp inh = inhibitors of RanGTP-importin-beta interaction, primary screen, biochemical, FRET, CFP-Ran, YFP-importin-beta, homogeneous; cell-free CFP-Ran/YFP-importin-beta FRET ratio; inhibition, % (no concentration beside the values); 300,000 tested, 1.1% active;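 active = most replicates above 15%; inconclusive = exactly half above 15%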;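 note: 0% = DMSO wells and 100% = Ran loaded with GDP instead of GTP; wells of about 40 µL received 100 nL stock; the first replicate is given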
Calb FLC = affects C. albicans growth with fluconazole | C. albicans CaCi-2 (fluconazole-resistant clinical isolate) + fluconazole, Alamar Blue growth, 48 h | growth inhibition, % (no concentration beside the values) | 300,000 tested, 0.57% active | AID 1979;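 active = most replicates above 75%; inconclusive = exactly half above 75%; inactive = most below 75%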;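 note: all wells also contain fluconazole at 8 µg/ml as a sub-toxic cotreatment; 0% = median of DMSO wells and 100% = median of geldanamycin control wells; wells of about 8 µL received 7.5 nL stock; the first replicate is given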
Active calls of the source: *; ? = inconclusive; / = not tested or not shown; & = joins results of further samples.

SMILES	LANA-H2B inh	MLL AF4-AF9 inh	Bfl-1 A1 inh	Vif TR-FRET	T cruzi inh	Beta apoptosis	RanGTP-Imp inh	Calb FLC
O=C(Oc1ccc(=O)n(-c2ccccc2)n1)c1ccccc1	-2.4	/	-0.4	7%	-3	-11	3.1	3
O=C(O)c1cccc(S(=O)(=O)N2CCCC(c3nc4c(nnn4Cc4ccc(F)cc4)c(=O)[nH]3)C2)c1 (stereo not given)	-2.8	-2.8	0.8	/	?	-8	6.2	-16
O=C(CCc1nc(-c2ccccc2Cl)no1)NCCc1ccccc1	-17	-4.3	-0.2	-1%	-3	-7	-3.7	-6
COc1ccc(S(=O)(=O)N2CCCC(C(=O)Nc3ccc4c(c3)OCCO4)C2)cc1 (stereo not given)	-1.3	4.1	-0.4	3%	6	/	?	9
CC1=CC(C)(C)N(C(=O)CSc2nnc(N)s2)c2ccccc21	2.3	/	-0.1	/	-9	-1	?	0
CSCCCNC(=S)N(C)CC(=O)Nc1ccc(C)cc1	3.5	-1.0	-0.6	/	-10	-5	-2.3	-14
Cc1nn(CCOc2ccccc2)c(=O)n1-c1ccc(Cl)cc1	-3.0	-3.5	-1.0	/	-5	-2	1.4	5
COc1ccc(N(CC(=O)NC2CCCC2)C(=O)CCC(=O)Nc2cc(C)on2)cc1	-1.5	1.8	0.2	-8%	-8	9	-3.2	-2
COC(=O)c1sccc1-c1ccc(C(=O)Nc2cccnc2)o1	0.7	/	-4.8	-7%	-7	-8	0.8	-24
O=C(NS(=O)(=O)N1CCCC1)C1=C(N2CCCC2)COC1=O	0.3	0.9	0.2	/	/	-1	/	/
COc1ccc(CN2CCN(Cc3ccc(Br)cc3)CC2)c(OC)c1OC	1.8	7.1	0.1	-8%	8	-2	2.1	/
O=C1Nc2ccccc2C1(c1ccccc1)c1ccccc1	-2.3	/	0.3	-2%	13	/	-3.8	1
COc1ccc(OC)c(NC(=O)c2cccc(N3C(=O)C4C5CCC(C5)C4C3=O)c2)c1 (stereo not given)	0.5	-4.2	1.0	/	4	12	1.7	-4
Cc1coc2cc3oc(=O)c(CCC(=O)O)c(C)c3cc12	-38	-3.1	-0.6	4%	-1	-1	0.5	-4
COc1ccccc1CN1CCCC(CN(CCN(C)C)C(=O)C2CCCC2)C1 (stereo not given)	2.6	0.0	0.3	/	33	0	-2.8	1
O=C(Nc1nnc(CCS(=O)(=O)c2ccc(Br)cc2)s1)c1ccc([N+](=O)[O-])cc1	0.5	/	-0.6	-7%	/	1	/	/
O=C(COCCOCC(=O)N(c1ccccn1)C1CCCCC1)N(c1ccccn1)C1CCCCC1	-4.0	/	0.1	0%&2%	2	2	-1.5	-9
CCOc1ccccc1CN1CCN(Cc2ccon2)CC1CCO (stereo not given)	4.6	0.9	0.0	-7%	2	-3	-3.2	?
Cc1ccc(C(=O)C2CCOC(C)(C)C2)cc1 (stereo not given)	-2.8	-5.5	-0.1	/	-4	-5	-4.1	0
Cc1cc(C)c(NC(=O)C2C3/C=C\CCCCC32)c(C)c1 (stereo not given)	-3.7	/	1.4	-4%	14	3	0.8	-9
COc1cc(NC(=O)Cn2cnc3sc(C)c(S(=O)(=O)N4CCOCC4)c3c2=O)cc(OC)c1OC	4.8	-1.7	0.0	/	-11	-2	-2.9	0
O=C(NCCO)c1cc(-c2cc(C(=O)NCCO)c3ccccc3n2)nc2ccccc12	-0.8	0.9	0.0	-11%	3	-9	-0.4	4
CC(C)[C@H](NC(=O)c1ccccc1)C(=O)OCC(=O)/C=C1/N(C)c2ccccc2C1(C)C	0.1	2.0	-0.3	/	11	57	-5.0	5
COc1cccc(-c2nc(CS(=O)CC(=O)NCc3ccccc3Cl)c(C)o2)c1 (stereo not given)	3.7	-6.9	-0.1	-2%	10	-7	?	-4
COCc1cc(C)nc(N/N=C/c2ccc(-c3cc(C(=O)O)ccc3Cl)o2)c1C#N	-2.0	-1.6	0.0	?	7	-4	-1.6	-16
Clc1ccc(Cc2nn3c(Cn4nnc5ccccc54)nnc3s2)cc1	0.5	/	0.7	22%	0	-1	-1.4	-19
Cc1cc(C)nc(NC(=NCCc2c[nH]c3ccccc23)NC(=O)Nc2ccccc2)n1	-1.6	/	0.3	-9%	49	8	-0.3	1
O=C(CSc1nc2ccc(Nc3nc(N4CCOCC4)nc(N4CCOCC4)n3)cc2s1)N1CCOCC1	1.0	/	1.2	/	30	8	-3.2	9
Cc1cccc2c(=O)c(-c3ccc4c(c3)OCO4)c(NC(=O)c3ccco3)oc12	3.9	-2.7	-1.5	/	1	-3	?	-6
COC(=O)CNC(c1ccccc1Cl)c1cc(Br)ccc1NS(=O)(=O)c1ccc(C)cc1 (stereo not given)	/	1.7	-0.2	21%	49	-2	-0.7	7
COC(=O)c1[nH]c2ccc(C)cc2c1NC(=O)CN1CCN(c2ccccc2)CC1	1.0	/	-0.7	-8%	-1	14	-3.0	16
COc1ccc(Cl)cc1N(CC(=O)Nc1ccccc1C(=O)NCc1ccco1)S(C)(=O)=O	-1.7	/	1.1	0%&5%	-1	-2	-1.2	-1
COc1cc2[nH]c(=S)n(Cc3ccc(C)o3)c(=O)c2cc1OC	1.5	/	-0.2	-16%	2	6	4.9	-8
COc1cccc(NS(=O)(=O)c2ccc3c(c2)N(C(C)=O)CCO3)c1	-0.4	-0.7	-0.1	-2%	3	-3	-1.6	0
CCCCc1nc2cc(C(=O)N(C)CCc3cn[nH]c3)ccc2o1	-0.4	-0.4	-0.5	/	-7	-1	-1.9	-11
CC1CCC2(CC1)SCC(=O)N2c1ccc(F)cc1 (stereo not given)	-5.5	/	0.8	-9%	3	/	-0.2	-1
COc1ccc(NC(=O)N2CCCC2C(=O)NCc2ccc(F)cc2)cc1 (stereo not given)	-2.0	/	-0.3	-7%	-1	2	-3.9	?
CC1=C(C(=O)OCCC#N)C(c2cc3c(cc2Br)OCO3)NC(=O)N1 (stereo not given)	-5.5	2.1	0.8	/	8	/	-0.3	-7
CCCCCc1ccc(-c2ccc(/C=C/C(=O)O)cc2)nc1	-5.7	/	-2.6	/	0	-3	?	81*
Cc1c(Cl)cccc1NC(=S)Nn1cnnc1	-8.2	-2.8	-0.8	11%	-4	-3	4.3	-4
NS(=O)(=O)c1cccc(NC(=O)COC(=O)c2ccccc2C(=O)c2ccccc2)c1	2.8	2.9	-0.1	4%	/	-3	/	/
CC(=O)N1CCSc2ccc(S(=O)(=O)Nc3ccc(C)cc3)cc21	-3.0	-1.1	2.1	18%	-2	4	-0.3	1
O=C1NC(=S)N/C1=C/c1ccc2c(c1)OCO2	-1.6	-2.9	0.4	-2%	9	-7	3.8	-7
CCOc1ccc(N2CC(C(=O)NC3CCCCCC3)CC2=O)cc1 (stereo not given)	4.4	-0.1	-0.3	/	-12	-2	1.5	-6
CCn1cc(C(=O)O)c(=O)c2cc(S(=O)(=O)N3CCCCCC3)ccc21	-1.3	-0.9	-1.7	/	-8	-2	0.1	3
Cc1ccccc1OCCCCCn1ccnc1	6.8	/	-0.6	-1%	67*	7	-2.7	-9
Cc1sc2ncn(/N=C/c3ccco3)c(=O)c2c1C	-2.4	-3.8	-1.3	/	-9	-10	-0.2	-14
Cc1ccc(NC(=O)C2C3/C=C\CCCCC32)cc1 (stereo not given)	-6.1	0.8	-0.7	19%	5	7	3.3	-7
O=C(O)/C=C/c1ccc(S(=O)(=O)Nc2ccc3[nH]c(=O)[nH]c3c2)cc1	-0.7	0.1	0.3	/	5	-4	27*	10
C=CCc1c(C)nc(SCC(=C)C)[nH]c1=O	1.4	/	-0.2	-3%	-1	-7	4.6	-10

Next part:
SMILES	LANA-H2B inh	MLL AF4-AF9 inh	Bfl-1 A1 inh	Vif TR-FRET	T cruzi inh	Beta apoptosis	RanGTP-Imp inh	Calb FLC
Cc1nn(-c2ccc(Cl)cc2)c(Cl)c1/C=C(\C#N)C(N)=O	/	-3.8	0.6	/	-18	-14	-2.1	0
COC(=O)c1cc2sccc2n1Cc1nc(-c2ccc(Cl)cc2)oc1C	-0.9	/	1.2	7%	-8	-3	-0.3	-1
NC(=O)[C@@H]1CCCNc2c(I)cc([N+](=O)[O-])cc2C(=O)N[C@@H](CCC(=O)O)C(=O)N[C@@H](CO)C(=O)N1	-1.8	/	0.5	-3%	/	5	/	/
O=C(NCc1cc(C(F)(F)F)ccc1F)C1CCC(=O)N(C2CC2)C1 (stereo not given)	4.4	1.9	0.3	/	-22	-5	-4.6	9
CCN(CC(=O)Nc1c(F)cccc1F)C(=O)CCc1c[nH]c2ccccc12	-0.9	1.1	1.0	-1%	-1	3	1.0	-1
CN(C)S(=O)(=O)n1cnc([C@H]2c3c(ncn3Cc3ccccc3)C[C@H]3COC(=O)[C@@H]32)c1	3.7	-18	-1.2	/	/	5	/	/
COCCNC(=O)CN1CCC(n2c(C)nc3cc(C(F)(F)F)ccc32)CC1	-0.7	/	0.0	4%	2	-5	0.6	0
CCC1=NN2C(=N)/C(=C\c3ccc(OCCOc4ccccc4OC)cc3)C(=O)N=C2S1	-0.1	-1.8	-0.5	/	15	/	-2.4	-3
CC(C)Cn1c(N)c(C(=O)CSc2cc(Cl)ccc2Cl)c(=O)n(C)c1=O	2.2	/	-0.2	12%	-6	24	-4.3	30
CCOC(=O)NN1C(=O)c2ccccc2NC1c1ccccn1 (stereo not given)	-0.3	0.1	0.3	-3%	-7	-10	-3.1	23
O=C(N/N=C/c1ccsc1)C1CC1	-1.5	-1.9	1.0	3%	-2	-5	-1.8	-12
COc1ccc(/C=N/N2C(=O)C3C4C=CC(CC4)C3C2=O)c(OC)c1 (stereo not given)	-6.8	-2.5	1.0	-3%	-3	-7	5.2	-6
Cc1ccc(S(=O)(=O)N2CCOCC2)cc1NC(=O)COC(=O)CSc1ccc(Br)cc1C	2.2	/	-0.7	2%	-20	-10	4.3	8
CCCCC(=O)Nc1ccc(C(=O)Nc2nnc(COC)s2)cc1	1.7	3.0	-0.3	-12%	3	0	1.8	0
OC(CCc1cccc(Cl)c1)c1cccs1 (stereo not given)	2.2	-9.0	-0.6	-6%	14	-1	4.7	-6
N=c1sccn1CC(=O)Nc1ccc(SC(F)F)cc1	2.9	-0.3	0.7	/	9	-2	23	-6
C=CCN(c1ccccc1C(=O)NCC(=O)O)S(=O)(=O)c1ccc(C)cc1	0.8	-8.5	0.8	-10%	-9	-2	2.1	-2
Cc1ccc(-n2nc3c(=O)n(CC(=O)NCCCc4ccccc4)nc(C)c3c2C)cc1	-5.3	-1.6	2.0	/	4	3	0.1	5
O=C1C(C=Nc2ccccc2O)=C(O)c2ccccc21	1.6	-39	-7.2	9%	-16	-1	-4.5	-22
COc1ccc(C(CC(=O)N2CCCC2)c2c(OC)cc(OC)c3c(-c4ccccc4)cc(=O)oc23)cc1 (stereo not given)	-2.7	0.7	0.3	/	26	8	12	11
Nc1ccn([C@H]2C[C@H](O)[C@@H](CO)O2)c(=O)n1	5.4&1.1	-4.1&-0.7	-0.5&0.5	/	-10&-8	-1&2	-4.3&-3.4	2&-3
O=C(NC1CCCC1)C1CC(c2ccc(F)cc2)=NO1 (stereo not given)	2.7	/	-1.0	-1%	-19	-6	2.2	-17
